# BJeLR lethal: BJeLR cell viability loss; BJeLR (HRASV12) viability, CellTiter-Glo ATP luminescence, 48 h; reference of the scale not given here; inhibition, % (no concentration beside the values); hit rate 0.17% among 300,000; AID 1554;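 active = replicate mean above 50%; inconclusive = above 50% but judged a plate artefact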;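 note: 50 nL library stock added to about 25 µL; numbers are from one replicate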
# Bead autofluor: compound fluorescence in toxin protease inhibitor counterscreen; compound autofluorescence counterscreen, microsphere flow cytometry; hits give high values; fluorescence intensity (no concentration beside the values); hit rate 3.1% among 360,000; AID 624483;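 active = at least 3 SD above the mean of all compounds, about 16000 in these data; inconclusive = too few beads counted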;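 note: 100 nL of 1 mM stock went into each well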
# ugtP null kill: kills S. aureus RN4220 lacking UgtP | S. aureus RN4220 ugtP deletion, OD600 growth, 16 h; some inactives read as strong as hits | growth inhibition, % (concentration not given with the values) | hit rate 0.54% among 330,000;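 active = z-score under -3 and OD600 up to 0.15 on both plates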;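 note: plate controls were untreated wells for no effect and antibiotic for full effect; wells of about 80 µL received 100 nL stock; the first replicate is given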
# Mtb hypoxia rep: Mtb hypoxia fluorescent reporter inhibition | M. tuberculosis hypoxia-regulated fluorescent reporter, fluorescence | fluorescence inhibition, % (no concentration beside the values) | hit rate 0.1% among 300,000;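 active = 35 to 45% if threefold the growth effect, above 45% if 1.5-fold the growth effect; inactive = the rest, general growth blockers included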;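 note: wells of about 50 µL received 100 nL stock; 0% = vehicle wells and 100% = reference inhibitor wells; whole bacteria with a GFP reporter of the hypoxia response; strong numbers were not always called active; many hits fall short of the cut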
# PrP UTR inh: inhibition of PrP 5' UTR reporter expression. cell-based PrP 5' UTR mRNA reporter, plate reader. inhibition, % (concentration not given with the values). hit rate 0.35% among 340,000;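 active = every replicate at 50% or more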;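 note: 0 = median of the neutral control wells; tested in H4 reporter cells; numbers are from one replicate; inactives centre near -14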
# RN4220 kill: S. aureus RN4220 growth inhibition | hit rate 0.33% among 330,000 | OD600, 16 h | inhibition, % (concentration not given with the values);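 active = z-score of -3 or lower and OD600 up to 0.18 on both plates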;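 note: plate controls were untreated cells for no effect and reference antibiotic for full effect; stock transfer was 100 nL into about 80 µL; one replicate is shown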
# Mtb hypoxia rep growth: second read-out of Mtb hypoxia rep, no call of its own (marks repeat the call); growth inhibition, %; measured here: M. tuberculosis growth (absorbance);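 0% = vehicle and 100% = reference antibiotic; read after six days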
# * marks the source's active call; other numbers are inactive results; ? = inconclusive; nt = not tested or not shown; & = joins results of further samples.
SMILES,BJeLR lethal,Bead autofluor,ugtP null kill,Mtb hypoxia rep,Mtb hypoxia rep growth,PrP UTR inh,RN4220 kill
CC(=NNC(=S)NC(C)C)c1ccc2c(c1)OCCO2,nt,nt,-3,11,4,nt,7.6
CC(C)(C)C1C=C(C(=O)Nc2ccccc2)OC(OCc2ccc(CO)cc2)C1 (stereo not drawn),nt,nt,8&-10,9&0,11&-2,nt,3.0&-5.2
Cc1csc2ncnc(N3CCN(C(=O)Nc4ccc(OC(F)(F)F)cc4)CC3)c12,6,4222,2,-2,-9,-3,-0.5
CCn1c(SCC(=O)Nc2cccc(NC(C)=O)c2)nnc1-c1ccco1,-6,5829,0,5,-1,-3,3.5
CCCc1nn2c(=O)cc(CSCC(=O)Nc3ccc(C)cc3)nc2s1,-4,5414,-1,-4,1,1,-0.1
COc1ccc2nc(NC(=S)NC(=O)c3ccco3)sc2c1,-10,2402,-10,10,0,-92,1.2
CCN(CC)CCn1c(NCc2nc3ccccc3n2Cc2ccccc2)nc2ccccc21,-1,12497,1,3,9,-32,-3.5
C=CCn1c(SCC(=O)N(CC)CC)nc(O)cc1=O,2,23021*,5,6,-1,-38,3.0
NC(=O)C[N+]1(CC#CC(O)(c2ccccc2)c2ccccc2)CCCC1,5,4640,-1,-2,9,-13,0.9
Cc1cc(C)cc(NC(=O)CSc2nnc(CNC(=O)c3cccs3)o2)c1,-7,3693,5,15,10,-9,-2.4
COc1ccc(N2CCN(C(CNC(=O)C(=O)NCc3cccnc3)c3ccco3)CC2)cc1 (stereo not drawn),0,5507,-3,11,2,-14,0.4
OCCNC(=S)NCc1ccccc1,10,6291,-1,7,-7,-83,5.3
O=C(CN1CCOCC1)N1CCN(c2nnc(-c3ccccc3)c3ccccc23)CC1,3,3983,-4,nt,nt,0,2.4
COc1ccc(-c2nc(SC(C)C(=O)Nc3ccc(NC(C)=O)cc3)n[nH]2)cc1 (stereo not drawn),8,?,0,3,6,-25,-0.2
COc1ccccc1CNCC(c1ccccc1)c1ccccc1,-5,4553,nt,nt,nt,-17,nt
COc1ccc(OC)c(S(=O)(=O)NCc2cn3ccsc3n2)c1,6,1952,1,1,4,-6,4.1
O=C(Nc1nccs1)C1CCN(S(=O)(=O)c2c(Cl)cccc2Cl)CC1,-4,3502,1,5,6,-7,6.5
CC1CC(C)CN(S(=O)(=O)c2ccc(C(=O)Nc3sccc3C(N)=O)cc2)C1 (stereo not drawn),5,5853,5,4,-2,-7,3.6
O=C(/C=C/c1cccc(F)c1)Nc1nccs1,9,2269,nt,nt,nt,-94,nt
COc1ccc(CN(C2CCCC2)S(=O)(=O)c2ccc(-n3cnnn3)cc2)cc1,6,3376,-14,nt,nt,8,-11
Cc1ccc(C)c2sc(NC(=O)CN3C(=O)CCC3=O)nc12,-6,3727,-5,-1,11,-20,-2.1
O=C(COc1ccccc1[N+](=O)[O-])N/N=C/C=C/c1ccco1,-13,9442,nt,nt,nt,-40,nt
O=C/C(=C\Nc1ccc(S(=O)(=O)CCO)cc1)c1nc2cc(Cl)ccc2o1,-3,4690,-1,3,2,-14,6.7
Cc1ccc(NC(=O)N2CCCC2C(=O)Nc2ccc3c(c2)OCO3)cc1 (stereo not drawn),-14,3319,6,10,7,-22,1.4
Cc1ccc(N(C)S(=O)(=O)c2cccc(C(=O)NNC(=O)c3ccncc3)c2)cc1,nt,3074,0,-3,-1,-15,4.4

# Further records follow.
SMILES,BJeLR lethal,Bead autofluor,ugtP null kill,Mtb hypoxia rep,Mtb hypoxia rep growth,PrP UTR inh,RN4220 kill
Cc1ccc(NS(=O)(=O)c2cc(N)ccc2Cl)c(C)c1,-7,4514,2,14,7,-13,3.6
O=C(Nn1cnnc1)c1cc2cc(Br)ccc2oc1=O,-4,23909*,6,1,6,-36,4.7
Cc1nc(SCC(=O)NCC2CCCO2)c2oc3ccccc3c2n1 (stereo not drawn),-9,8538,-12,13,5,-18,4.8
COc1ccccc1NS(=O)(=O)c1cccc(C(=O)N/N=C(/C)c2ccc(-n3ccnc3)cc2)c1,nt,4102,-1,-7,5,-2,3.8
COc1ccc(-n2cc(CN(C)CCO)c(-c3cccc(F)c3)n2)cc1,4,2116,1,8,3,-23,1.8
N=C1C(=O)OCC1c1ccccc1NC(=O)c1ccccc1 (stereo not drawn),11,2598,-4,11,11,-17,5.1
COc1cc(NC(=O)Nc2ccc(C)cc2)cc([N+](=O)[O-])c1,4,2520,-26,0,-9,-13,-5.2
CC(=NN(Cc1ccccc1)c1ccccc1)c1ccncc1,nt,nt,8,-1,-1,nt,3.5
O=C(NCCC1=CCCCC1)C1CCN(S(=O)(=O)c2cccs2)CC1,-4,11595,2,6,15,-23,0.5
NC(=S)Nc1ccc(Oc2ccc(NC(N)=S)cc2)cc1,12,7927,10,nt,nt,-32,4.1
C[C@]12c3[nH]c4ccc(Cl)cc4c3CCN1C(=O)[C@@H](CC(=O)NCCCn1ccnc1)C[C@@H]2C(=O)N1CCCCC1,nt,3569,1,-7,4,-18,5.1
COc1ccc(C(=O)NCC(=O)OCCCOC(=O)CNC(=O)c2ccc(OC)c(OC)c2)cc1OC,5,6026,1,-5,-1,2,2.9
Cc1cccc(N(C)C(=O)CN(C)S(=O)(=O)c2ccc3c(c2)c(=O)n(C)c(=O)n3C)c1,5,5505,-2,-4,7,8,1.5
CCCCC(=O)N1CCCC(c2nc(-c3cccc(OC)c3)no2)C1 (stereo not drawn),-1,4248,6,6,7,-37,4.0
O=C(N[C@@H](Cc1ccccc1)C(=O)NC1CC1)c1ccc(Cl)cc1,-4,3173,11,1,2,-3,6.6
CN1CCN(S(=O)(=O)c2ccc(-c3ccccc3)cc2)CC1,-14,22073*,-2,2,6,-9,6.4
COC(=O)c1sc(SC)c2c1CC(C)(C)CC2=NO,nt,nt,12,1,6,nt,2.6
CCCN(CC(=O)Nc1ccccc1C)C(=O)c1cccc(S(=O)(=O)N2CCc3ccccc3C2)c1,-1,?,-5,3,7,-13,0.2
COc1ccc(-c2nnc(C3CCN(S(=O)(=O)c4ccccc4)CC3)o2)cc1,12,6590,1,11,11,-13,-8.6
COc1ccccc1N(C(=O)c1ccco1)C(C(=O)NC1CCCC1)c1ccc(N2CCOCC2)cc1 (stereo not drawn),-14,4400,nt,nt,nt,-4,nt
CCCSc1nnc(Sc2nnnn2-c2ccccc2)s1,32,?,2,17,22,-7,6.5
CCn1nnc(NC(=O)c2ccc([N+](=O)[O-])o2)n1,-2,3940,6,3,-2,-89,0.9
Fc1ccc(N2CCN(Cc3cnc(Cl)s3)CC2)cc1,-8,4255,5,5,6,-36,7.3
O=C(OC1CCCCC1=O)c1ccc(F)c(S(=O)(=O)N2CCOCC2)c1 (stereo not drawn),-1,?,5,7,3,-111,4.6
CCCCOc1ccc(C(=O)NN2C(=O)NC3(CCCCC3)C2=O)cc1OC,-4,6769,4,10,13,-10,3.7

# Shown with values under each structure: 5 of the compounds above
# Fields – BJeLR lethal	Bead autofluor	ugtP null kill	Mtb hypoxia rep	Mtb hypoxia rep growth	PrP UTR inh	RN4220 kill
COc1ccc(-c2nnc(C3CCN(S(=O)(=O)c4ccccc4)CC3)o2)cc1
    12	6590	1	11	11	-13	-8.6
COc1ccccc1N(C(=O)c1ccco1)C(C(=O)NC1CCCC1)c1ccc(N2CCOCC2)cc1 (stereo not drawn)
    -14	4400	nt	nt	nt	-4	nt
CCCSc1nnc(Sc2nnnn2-c2ccccc2)s1
    32	?	2	17	22	-7	6.5
CCn1nnc(NC(=O)c2ccc([N+](=O)[O-])o2)n1
    -2	3940	6	3	-2	-89	0.9
Fc1ccc(N2CCN(Cc3cnc(Cl)s3)CC2)cc1
    -8	4255	5	5	6	-36	7.3

# (list continues)
SMILES,BJeLR lethal,Bead autofluor,ugtP null kill,Mtb hypoxia rep,Mtb hypoxia rep growth,PrP UTR inh,RN4220 kill
Cc1cccc(-c2nc(S(=O)(=O)c3ccc(F)cc3)c(NCCCN3CCOCC3)o2)c1,-9,5049,3,2,-5,-19,-0.6
COC(=O)N1CC(C)N(C(=O)OC)CC1C (stereo not drawn),-6,2950,7,6,12,-11,6.5
CCOC(=O)/C(=N\Nc1ccc(C(C)=O)cc1)c1csc(Nc2ccccc2)n1,-6,2138,nt,nt,nt,-38,nt
Cc1cccc(NC(=O)CCS(=O)(=O)c2ccc3c(c2)NC(=O)CS3)n1,-3,5537,6,-8,-3,-9,2.7
COc1ccc(NC2CCCN(C(=O)CN3CCOC3=O)C2)cc1OC (stereo not drawn),6,5142,12,2,4,-8,2.0
CCOC(=O)C(Sc1nnc(-c2ccncc2)o1)C(C)=O (stereo not drawn),-21,16214*,1,9,6,-16,-2.5
CC(=O)Nc1ccc(S(=O)(=O)NCCCN2CCN(Cc3ccccc3)CC2)cc1Cl,1,6460,-2,0,11,-14,0.9
C=CCOC(=O)C1=CC(c2ccc(C(F)(F)F)cc2)CC(OCc2ccc(CO)cc2)O1 (stereo not drawn),nt,nt,6,7,3,nt,0.8
COc1cccc(-n2nnc3c(=O)n(CC(=O)NCC4CCCO4)cnc32)c1 (stereo not drawn),-14,5860,-6,1,15,-15,-4.4
Cc1cccc(CNc2ncnc3ccc(-c4ccoc4)cc23)c1,nt,3587,7,-9,10,3,3.1
COc1ccccc1C(=O)C1CCCN(Cc2ccc(Oc3ncccn3)cc2)C1 (stereo not drawn),-12,3313,3,-12,0,-9,6.6
CCOCCCNC(=O)c1cccc(OC2CCN(S(C)(=O)=O)CC2)c1,3,4141,4,3,6,-77,2.3
COc1ccc(-c2nc(CS(=O)CC(=O)N3CCc4ccccc4C3)c(C)o2)cc1 (stereo not drawn),0,6079,1,nt,nt,2,1.7
COc1ccc(-n2c(CCc3ccccc3)n[nH]c2=S)cc1,4,3354,7,1,4,-10,0.0
CCC(CO)Nc1ncc([N+](=O)[O-])cc1C#N (stereo not drawn),-10,3641,19,4,3,-10,3.9
O=C(CCNS(=O)(=O)c1ccc(Br)s1)NC1CCCC1,9,24053*,0,-2,8,3,0.6
COc1ccc(C)cc1NC(=O)CN(c1ccccc1)S(C)(=O)=O,-4,?,-4,0,5,0,0.2
Oc1cccc(/C=N/N2CCN(C3c4ccccc4-c4ccccc43)CC2)c1,-1,4431,nt,nt,nt,3,nt
Nc1ccc(S(=O)(=O)Nc2nc(-c3ccccc3)cc(-c3ccccc3)n2)cc1,6,5952,-9,4,11,-18,11
CCOc1ccc(S(=O)(=O)N(CC)CC(=O)N2CCCC2)cc1C,-4,3860,11,-3,-3,-10,1.7
CN1CCC(=O)N(C(CO)c2ccccc2)CC1 (stereo not drawn),nt,nt,-4,9,4,nt,4.4
CN(C)/C=N/c1nc2nccc(-c3cccnc3)n2n1,-4,4701,nt,nt,nt,-14,nt
O=C(CN1C(=O)S/C(=C\c2ccccc2F)C1=O)Nc1ccccc1O,-1,3963,-4,-1,3,-1,0.4
CC1=C(C)CC(C(=O)NCc2ccc3c(c2)OCO3)C(C(=O)O)C1 (stereo not drawn),0,11800,14,7,6,-18,6.8
CC(=O)C1=C(N2CCCCC2)CCC1=O,-2,2988,-1,nt,nt,-3,3.6

# Only PrP UTR inh and RN4220 kill (five entries from above):
SMILES,PrP UTR inh,RN4220 kill
COc1cccc(-n2nnc3c(=O)n(CC(=O)NCC4CCCO4)cnc32)c1 (stereo not drawn),-15,-4.4
Cc1cccc(CNc2ncnc3ccc(-c4ccoc4)cc23)c1,3,3.1
COc1ccccc1C(=O)C1CCCN(Cc2ccc(Oc3ncccn3)cc2)C1 (stereo not drawn),-9,6.6
CCOCCCNC(=O)c1cccc(OC2CCN(S(C)(=O)=O)CC2)c1,-77,2.3
COc1ccc(-c2nc(CS(=O)CC(=O)N3CCc4ccccc4C3)c(C)o2)cc1 (stereo not drawn),2,1.7

# Bioassay records: PubChem, several laboratories
